PINK1 expr mod – A Quantitative High throughput Screen to Identify Chemical Modulators of PINK1 Expression; Potency, µM (series often up to 76.6 µM), for inactives: at the top dose activation (PINK1 increase), usual class: activators; 410,000 compounds, 0.2% hits; PINK1 immunofluorescence, high-content cytometry, 24 h; AID 624263, 2012; active = well fitted activation curve with a large enough effect; inconclusive = small, poorly fitted or top-dose-only effect; inactive = flat fitted curve, though single readings scatter; cell line not stated here;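 also: potency is read from the fitted curve at half-maximal effect; % of control where 0% means no effect; nearly all actives have a fitted effect of over 65% in size; a mitochondrial uncoupler was the plate control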
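Measures PINK1 amount and localization on or inside mitochondria by immunofluorescence. Stable cells get compounds at 5 concentrations for 24 hours before fixation and staining; CCCP controls included.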
Six1-Eya2 blk – qHTS Assay for Inhibitors of the Six1/Eya2 Interaction | Homeobox protein SIX1 (Homo sapiens) + Protein phosphatase EYA2 (Homo sapiens), … | AlphaScreen GST-Six1/His-Eya2 binding, biochemical; stronger effect = lower value; control for the full effect not named in the record | activity change, % (concentration not given with the values) | 360,000 compounds, 0.56% hits | AID 651725, 2012; in the data active = activity change below about -65%; inconclusive = about -30% to -65%; inactive = above about -30%; also: % is scaled to controls: 0 for no effect and ±100 for the full control effect
Target sequence (O00167 whole entry, looked up): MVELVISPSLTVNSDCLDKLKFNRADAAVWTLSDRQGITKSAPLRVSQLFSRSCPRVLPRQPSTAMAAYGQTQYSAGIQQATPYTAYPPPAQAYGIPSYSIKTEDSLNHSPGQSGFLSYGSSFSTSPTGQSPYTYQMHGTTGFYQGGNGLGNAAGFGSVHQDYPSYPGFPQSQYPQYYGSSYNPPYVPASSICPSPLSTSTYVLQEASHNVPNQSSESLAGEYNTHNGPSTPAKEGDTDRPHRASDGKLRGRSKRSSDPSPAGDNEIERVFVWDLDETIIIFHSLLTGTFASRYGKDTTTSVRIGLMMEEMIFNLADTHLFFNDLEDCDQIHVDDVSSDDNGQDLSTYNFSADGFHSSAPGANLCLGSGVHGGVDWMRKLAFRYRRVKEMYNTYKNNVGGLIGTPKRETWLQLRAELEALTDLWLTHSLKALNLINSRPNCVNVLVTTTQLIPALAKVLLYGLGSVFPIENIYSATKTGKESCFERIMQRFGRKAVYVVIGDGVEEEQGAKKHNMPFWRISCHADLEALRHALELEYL
Target sequence (Q15475 whole entry, looked up): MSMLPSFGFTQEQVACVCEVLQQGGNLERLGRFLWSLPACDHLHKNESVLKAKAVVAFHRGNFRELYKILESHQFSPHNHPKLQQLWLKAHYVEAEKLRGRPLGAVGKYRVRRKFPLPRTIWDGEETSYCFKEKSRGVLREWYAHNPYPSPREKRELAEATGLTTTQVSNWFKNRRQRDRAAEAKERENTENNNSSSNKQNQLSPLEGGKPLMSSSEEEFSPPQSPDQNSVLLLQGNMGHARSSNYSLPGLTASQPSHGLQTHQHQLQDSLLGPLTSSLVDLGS
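Six1/Eya2 binding was read as AlphaScreen signal after compounds were pinned into GST-Six1 plus His-tagged Eya2 (5X stock 250/500 nM) in pH 8.0 Tris/NaCl/TCEP buffer, beads added, then incubated 1 h, 37 C, dark.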
D2 ag – Beta-Arrestin HTS for Positive Allosteric Modulators of the Human D2 Dopamine Receptor: Agonists; D(2) dopamine receptor (Homo sapiens), P14416; DiscoveRx PathHunter D2 beta-arrestin, luminescence, 90 min; 100% = 57 uM dopamine signal; activation, % (no concentration beside the values); 360,000 compounds, 0.084% hits; AID 624465, 2012; in the data active = activation above about 40%; inconclusive = about 15% to 40%; inactive = below about 15%; also: compound concentration not given in the record; the text of the record calls up to 30% inactive
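Agonist mode: compounds alone added to overnight-plated D2 PathHunter cells for 90 min at 37 C, with 57 uM final dopamine (EC100) defining full response. Beta-arrestin recruitment detected by chemiluminescent reagent, read after 1 h at ambient temperature.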
CtBP-E1A blk – qHTS Assay for Inhibitors of the CtBP/E1A Interaction. CtBP / adenovirus E1A interaction (AlphaScreen). AlphaScreen GST-E1A/His-CtBP binding, 1536-well; stronger effect = lower value; control for the full effect not named in the record. activity change, % (concentration not given with the values). 340,000 compounds, 0.49% hits; in the data active means activity change below about -65%; inconclusive means about -30% to -65%; inactive means above about -30%; also: % is scaled to controls: 0 for no effect and ±100 for the full control effect
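Protein mix (5X: 125 nM each GST-E1A, His-CtBP) was incubated with pinned compound 2 h at 37 deg C in dark, in 50 mM Tris pH 8.0 buffer with 300 mM NaCl. Glutathione donor and nickel acceptor beads followed; AlphaScreen signal read after 1 h.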
TRPV1 PAM – HTS Assay for Compounds that Act as Potentiators of the Vanilloid Receptor 1 | Transient receptor potential cation channel subfamily V member 1 (Homo sapiens), Q8NER1 | TRPV1-expressing cells, Fluo-8 calcium influx, capsaicin EC20 potentiation; host cell line not named in the record; control for the full effect not named in the record | potentiation, % at 8.33 µM | 320,000 compounds, 0.02% hits | AID 540277, 2011; active means potentiation above 80%; inconclusive means 30% to 80%; inactive means below 30%; also: 0% is about no effect
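Fluo-8 calcium influx in TRPV1-expressing cells, kinetic read (ex 480/em 520 nm). Compound added and read 3 min for agonist activity, followed by capsaicin at EC20 final and 2 min further read for enhancement.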
D2 PAM – Beta-Arrestin HTS for Positive Allosteric Modulators of the Human D2 Dopamine Receptor: Potentiators; 360,000 compounds, 0.23% hits; DiscoveRx D2 beta-arrestin cells, luminescence, 90 min; 100% = 57 uM dopamine signal; potentiation, % (test concentration not listed); AID 624464, 2012; D(2) dopamine receptor (Homo sapiens), P14416; active = potentiation of 50% or more; inconclusive = 30% to 50%; inactive = 30% or less;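 also: compound concentration not given in the record; tested on top of an EC20 dose of dopamine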
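PathHunter beta-arrestin assay in DiscoveRx D2 cells. Compounds were added with an EC20 of dopamine (50 nM final) for 90 min at 37 deg C. Luminescence was read 1 h after detection reagent, with 57 uM dopamine as the EC100 control.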
Sfp PPTase inh – qHTS Assay for Inhibitors of Bacillus subtilis Sfp phosphopantetheinyl transferase (PPTase); 4'-phosphopantetheinyl transferase ffp (Bacillus subtilis), Q9F4F7; Biochemical Sfp PPTase activity, qHTS; Potency, µM, for the others: max response, negative = inhibition, actives largely listed as inhibitors; 310,000 compounds, 3.5% hits; AID 1490, 2009; active = well fitted inhibition curve with a large enough effect; inconclusive = small, poorly fitted or top-dose-only effect, or another doubt; inactive = no such curve, though single readings can be large or run the other way;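 also: the enzyme is Sfp with the accession as filed and its product quenches rhodamine fluorescence; potency is read from the fitted curve at half-maximal effect; 0% = enzyme reaction without inhibitor and -100% = no enzyme wells; top concentration of the series not given in the record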
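With Hepes-Na pH 7.6 buffer containing 10 mM MgCl2, Sfp (15 nM) modified BHQ-2-YbbR (12.5 uM) using rhodamine-CoA (5 uM). Two reads 30 minutes apart at 525/598 nm yielded each well's rate.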
An asterisk follows results filed as active; ? = inconclusive; · = not tested or not shown; & = joins results of further samples; [ ] = another dose, or the depositor's remark.

Structure	Six1-Eya2 blk	TRPV1 PAM	PINK1 expr mod	D2 PAM	Sfp PPTase inh	D2 ag	CtBP-E1A blk
CCOC(=O)C(NC(=O)c1ccccc1)(OCc1ccccc1)C(F)(F)F (stereo not given)	0	-8	0.3%	-5	-4%	-6.8	-11
CCCCn1c(N)c(N(CC)C(=O)c2ccc(N(C)S(=O)(=O)c3ccc(C)cc3)cc2)c(=O)[nH]c1=O	0	3	-3.6%	-19	·	-0.2	5
COc1ccc(CNC(=O)CSc2nnnn2C)cc1OC	1	-2	-1.1%	-4	-1%	2.0	9
CCOC(=O)N1CCN(C(=O)COc2ccc(Br)cc2Cl)CC1	-3	?	36%[38.3 µM]	4	-9%	-2.9	-2
COc1ccc(-n2nc(C(=O)Nc3cc(OC)c(OC)c(OC)c3)c3ccccc3c2=O)c(OC)c1	1	3	5.9%	-3	6%	-1.4	·
COc1ccc(-n2c(COc3ccc(C)cc3)nnc2SCC(=O)O)cc1	7	-1	-1.0%	1	14%	-2.6	-5
CCCCN(CCCNC(=O)Cn1nc(CC)n2c(cc3sc(C)cc32)c1=O)Cc1ccccc1	-3	-2	1.4%	-9	11%	-1.1	·
C/C(=N\NC(=O)Cc1ccc(O)cc1)c1cccnc1	24	-5	-0.5%	6	16%	-3.1	7
CC(=O)Nc1cccc(C)c1	-1	0	-0.1%	-6	·	2.1	5
CCOc1cc(C2C(C(=O)OC)=C(C)N=C3SCCC(=O)N32)ccc1OC(C)=O (stereo not given)	5	-5	-0.9%	-17	23%	1.8	-5
COCCn1c(-c2ccccc2)nc2oc3cc(OC)ccc3c(=O)c2c1=O	-2	9	3.4%[38.3 µM]	-15	25%	-3.1	2
CCS(=O)(=O)c1ccc(N)cc1	0	-7	1.9%	-10	-26%	-1.7	0
C[n+]1cccc(C(=O)Nc2ccccc2)c1	1	-4	0.9%	-5	-4%	-3.3	7
CC(C)CNC(=O)COc1cccc(C(=O)NCc2ccccc2)c1	10	2	-1.2%	-8	10%	-1.8	-9
CC(C)CNC(=O)c1ccccc1NC(=O)c1ccc(CN2CCOCC2)cc1	4	-18	0.8%[38.3 µM]	-18	9%	-0.7	-2
O=C(Nc1cccnc1)Nc1cccc([N+](=O)[O-])c1	1	0	1.3%	-12	13%	-5.4	6
CCNC(=O)c1cc2c(c(-c3cccc(-c4ccccc4F)c3)n1)[C@@H](CCO)N(C(=O)CC)C2	-6	·	5.2%	·	·	·	1
C/C(=N\NC(=O)c1cccc(S(=O)(=O)N2CCCC2)c1)c1ccccc1F	0	-19	0.4%	-16	·	-1.7	-4
Cc1cc(C(=O)CSc2ncn[nH]2)c(C)n1-c1cccc(S(=O)(=O)N2CCOCC2)c1	-5	-4	2.7%	-3	6%	0.8	-2
COCCNC(=O)CCn1nc(-c2ccc(Cl)cc2)c2ccccc2c1=O	5	8	4.9%&1.5%	-4	15%	3.8	3
COC(=O)c1sccc1NC(=O)Nc1cc(C)cc(C)c1	3	-3	-1.2%	-6	3%	3.1	0
CCOC(=O)C1CCCCN1Cc1cccc(OCc2ccccc2)c1 (stereo not given)	18	13	9.1%	-22	?	-0.8	33
O=C(c1ccccc1F)N1CCN(Cc2cccc(Cl)c2)CC1	-1	-4	0.8%[38.3 µM]	-20	-23%	-2.0	0
Cc1ccccc1NC(=S)N1CCN(c2ccccc2Cl)CC1	-12	-3	-0.1%	-26	20%	-2.1	-3
CC(=O)Nc1ccc(C(=O)CN2C(=O)NC3(CCCCCC3)C2=O)c(F)c1	3	·	-1.3%	-10	·	-3.7	2
CCOC(=O)c1oc2cc(O)c(CC)cc2c(=O)c1-c1ccc2c(c1)OCCO2	0	-11	2.1%	6	9%	3.0	0
CCOc1ccc(C(=O)Nc2cccc(C(=O)O)c2)cc1Cl	4	1	-1.1%	1	8%	-1.3	-6
O=C1[C@@H]2[C@H]3CC[C@H](C3)[C@@H]2C(=O)N1O	0	2	0.0%	-5	26%	2.8	15
CC(=O)Nc1cc(-c2ccc(C(=O)N3CCOCC3)cc2)cn2c(-c3ccccc3)cnc12	-1	·	5.0%	-9	·	-1.3	-3
CCOC(=O)N1CCC(NC(=O)c2cc(S(=O)(=O)N3CCC4(CC3)OCCO4)ccc2F)CC1	1	-4	-8.1%[38.3 µM]	-6	12%	0.2	1

Next section.
Structure	Six1-Eya2 blk	TRPV1 PAM	PINK1 expr mod	D2 PAM	Sfp PPTase inh	D2 ag	CtBP-E1A blk
O=C(CCNC(=O)c1ccccc1)NNC(=O)c1ccc(F)cc1	-4	·	1.9%	-9	·	-3.5	·
CSCCC(NC(=O)COc1ccccc1)C(=O)OCc1ccc(Cl)cc1 (stereo not given)	-7	·	4.1%	3	·	-0.8	1
CCOC(=O)c1sc(NC(=O)c2ccco2)nc1-c1ccccc1	4	-11	1.0%	-13	16%	1.2	-19
C/C=N/NC(=O)c1cc(Br)ccc1O	-14	8	0.3%	-20	-5%	-7.7	3
COc1cccc(CNC(=O)C2CCCN(S(=O)(=O)c3cnc[nH]3)C2)c1 (stereo not given)	-2	5	-0.4%	-9	10%	-4.2	6
CC1(NC(=O)Nc2cccc(Br)c2)CCS(=O)(=O)C1 (stereo not given)	3	·	0.5%	-10	·	-2.5	6
Cc1ccc(S(=O)(=O)NCC(=O)N2CCCC2)cc1	-8	1	-5.4%[38.3 µM]	-3	10%	0.4	-2
COc1ccc(/C=N/NC(=O)c2cccc(O)c2)cc1Cn1nc(C)c([N+](=O)[O-])c1C	?	3	5.6%	-13	9%	-0.2	·
COc1cccc(-c2nc(CS(=O)(=O)CC(=O)NC3CCCC3)c(C)o2)c1	0	17	0.8%	-16	7%	-2.4	3
CC(C)CC(OC(=O)c1nsc(Cl)c1Cl)C(=O)NCC1CCCO1 (stereo not given)	10	-8	1.9%	-10	-5%	-4.0	10
O=C(Nc1ccon1)c1sc2cc(F)ccc2c1Cl	-8	8	0.6%	-4	9%	-2.7	1
O=c1ccc(-c2ccc(S(=O)(=O)N3CCN(c4cccc(Cl)c4)CC3)o2)n[nH]1	5	-13	3.0%	-13	10%	1.7	-12
COc1ccc(S(=O)(=O)NCCc2nnc3ccc(SCC(=O)Nc4nc(C)cs4)nn23)cc1	-2	6	1.0%	-6	16%	0.8	2
NC(=S)N/N=C/c1coc2c(ccc3ccccc32)c1=O	-2	-1	-3.2%	-1	8%	-3.8	6
NC1=C(c2ccccc2)C(=O)NC1=O	1	-1	-1.1%	1	8%	-7.4	5
CN(/C=C/C(=O)C(F)(F)F)Cc1ccccc1	21	-13	-2.0%	-9	6%	-3.0	12
O=C(Cc1c[nH]c2ccccc12)NC1(C(=O)NC2CCCC2)CCCCC1	6	-1	1.2%	0	27%	2.8	-1
COC(=O)N(NC(=O)C(O)(c1ccccc1)c1ccccc1)c1ccc(C)cc1	-1	-2	0.5%	-14	7%	-2.4	2
O=C(NCCN1CCOCC1)c1cccc(S(=O)(=O)NCc2ccccc2)c1	6	28	2.1%	-15	·	1.9	-1
O=C(Nc1ccccc1C(=O)N1CCN(c2ccccc2)CC1)c1ccco1	3	1	-0.5%	2	18%	-0.6	4
Cc1ccc(C(OCC(O)CN2CCCCC2)c2ccccc2)cc1 (stereo not given)	-3	4	1.0%	-9	-8%	0.7	1
O=C(CSc1nnc(-c2ccccn2)n1Cc1ccccc1)Nc1ccc2c(c1)OCO2	0	0	0.7%	-22	-6%	-1.4	3
COc1ccccc1-c1ccc(=O)n(CC(=O)NCc2cccs2)n1	5	-11	-1.3%	2	16%	-1.8	-24
COc1ccc(NS(=O)(=O)c2ccc3oc(SCC(N)=O)nc3c2)cc1	-3	10	1.4%	-2	9%	-3.8	-7
Cc1cc2nc(-c3ccc(SCc4ccccn4)nc3)[nH]c2cc1C	-26	-3	0.4%	11	-11%	8.2	-23
CCn1cc([N+](=O)[O-])c(C(=O)N2CCN(C(=O)c3ccco3)CC2)n1	2	2	3.8%	-6	-6%	4.2	0
Cc1c(OC(C)C(=O)NCCCN2CCOCC2)ccc2c1oc(=O)c1ccccc12 (stereo not given)	-1	7	-0.4%	-12	9%	-4.0	-5
CC(C)C1Cc2ccccc2-c2[nH]c(=S)[nH]c(=O)c21 (stereo not given)	9	·	-1.2%	-16	·	-5.8	6
O=C1CC(C(=O)Nc2cc(Cl)ccc2Cl)n2ncnc2N1 (stereo not given)	2	13	0.2%	3	17%	1.0	-6
CNC(=S)N(CCc1c(C)[nH]c2ccc(C)cc12)Cc1cccs1	-24	8	0.4%	-2	14%	-1.9	-17

The list continues:
Structure	Six1-Eya2 blk	TRPV1 PAM	PINK1 expr mod	D2 PAM	Sfp PPTase inh	D2 ag	CtBP-E1A blk
COc1ccc(CNC[C@H]2O[C@@H](n3ccc(=O)[nH]c3=O)[C@H](O)[C@@H]2O)cc1OC	-3	·	-0.1%	·	·	-0.9	-10
Cc1ccc(C(=O)N2CC=C(c3ccccc3)CC2)o1	-8	4	-3.8%	-19	·	-4.1	-4
CCCCC(C(=O)NC(C)(C)C)N(Cc1ccccc1)C(=O)c1snc(C(N)=O)c1N (stereo not given)	-6	-22	0.6%	-10	4%	-4.1	12
O=S(=O)(c1ccccc1)N1CCN(Cc2cccc(Cl)c2)CC1	7	-7	1.1%	11	-25%	-7.3	8
COC(=O)c1cccc([N+](=O)[O-])c1CN1CCCC(C(N)=O)C1 (stereo not given)	2	3	0.2%	-7	9%	-2.8	5
CC1CC(C)CN(c2nc3c(c(=O)n(C)c(=O)n3C)n2C)C1 (stereo not given)	1	-5	-0.1%[38.3 µM]	-3	9%	-1.0	6
